VACV Venus inh = vaccinia inhibition (Venus reporter). Vaccinia virus Venus reporter expression, fluorescence. Potency, µM (doses to about 36.5 µM), without a hit: top-dose activity change, negative = inhibition, usual class: inhibitors. AID 720580. actives 0.46% (n = 330,000); active means well fitted inhibition curve with a large enough effect; inconclusive means small, poorly fitted or top-dose-only effect; inactive means no such curve, though single readings can be large or run the other way; tested in A549 cells; also: nearly all actives have a fitted effect of over 30% in size; inactives centre near -10
VACV mCherry inh = inhibitors of vaccinia virus infection (mCherry reporter signal) | Vaccinia virus mCherry reporter infection, fluorescence; about a quarter of the inactives have no number | Potency, µM (top dose mostly 36.5 µM), for the others: top-dose activity change, negative = inhibition, hits mostly inhibitors | actives 0.63% (n = 310,000) | AID 720579; active = well fitted inhibition curve with a large enough effect; inconclusive = small, poorly fitted or top-dose-only effect; inactive = no such curve, though single readings can be large or run the other way; tested in A549 cells; also: nearly all actives have a fitted effect of over 35% in size; inactives centre near -10
* hit, by the source's call; i = inactive; ? = inconclusive; · = no result given; & = joins results of further samples; [ ] = dose if it differs, or a comment. % is scaled to controls: 0 for no effect and ±100 for the full control effect; potency is read from the fitted curve at half-maximal effect.

SMILES	VACV Venus inh	VACV mCherry inh
Nc1cc(=O)[nH]c(SCC(=O)Nc2cc(S(=O)(=O)N3CCOCC3)ccc2Cl)n1	-19%	-16%
Cc1ccc(NC(=O)N2CCOCC2)c(C)c1	-11%	-20%
O=C(CNC1CCCCC1)Nc1cc(S(=O)(=O)N2CCOCC2)ccc1Cl	-16%	-19%
COc1cccc(OC)c1NC(=O)CN1CCN(C)CC1	-6%	8%
Cc1ccc(SCC(=O)NCCSC(C)(C)C)cc1	-2%	·
COc1ccc(OC)c(-c2cc(C(=O)NCc3ccco3)no2)c1	-27%	-25%
CC(N=C(NS(=O)(=O)c1ccc(Cl)cc1)c1ccccc1)C(=O)O (stereo unspecified)	?	-14%
COc1ccccc1N(CC(=O)Nc1ccc(C)c(Cl)c1)S(=O)(=O)c1ccc(C)cc1	-10%	-14%
Cc1ccc(NC(=O)c2cc(S(=O)(=O)N3CCOCC3)c(Br)s2)cc1	-17%	-26%
CCOC(=O)c1c(C)[nH]c(C(=O)OCc2ccc(F)cc2)c1C	-4%	-13%
C/C(=N\OCc1cccc(C(=O)O)c1)c1ccc(Cl)cc1	-6%	i
COc1ccc(C(=O)Nc2ccc3c(c2)OCO3)cc1OC	-2%	-14%
CCCCNC(=O)c1nc(C2CCN(S(=O)(=O)c3ccccc3C(F)(F)F)CC2)oc1-c1ccccc1	-11%	24%
O=C(CSc1nc2ccccc2o1)Nc1cc(C(F)(F)F)ccc1N1CCOCC1	-13%	-3%
O=C(NCc1ccco1)c1ccc(Cl)c(S(=O)(=O)N2CCc3ccccc32)c1	-23%	?
COc1ccc(NC(=S)N2CCN(C(=O)c3ccco3)CC2)cc1	-10%	-7%
COc1ccc2[nH]cc(S(=O)(=O)c3ccc(C)cc3)c2c1	-3%	-4%
FC(F)(F)c1ccc(C2Nc3cccc4cccc(c34)N2)cc1	2%	-28%
CC(=O)/C(=C/c1ccccc1)C(=O)Nc1ccccc1C	?	?
COCCn1c(=O)[nH]c2cc(C(=O)Nc3ccc(OC)cc3)ccc2c1=O	-2%	5%
O=C(OCCOc1ccccc1F)c1cc(S(=O)(=O)N2CCOCC2)ccc1F	-13%	-8%
CC(=O)/C(C(=N)N1CCN(C(c2ccccc2)c2ccccc2)CC1)=C(\C)O	-4%	-12%
CCOc1ccc(N=CC2=C(O)CC(C)(C)CC2=O)cc1	-8%	-19%
CC1(C(=O)Nc2ccc3c(c2)OCO3)CCN1Cc1csc2ccccc12 (stereo unspecified)	-13%	-2%
O=C(CN(CCc1ccccc1)C(=O)c1csnn1)NCc1ccc(F)cc1	2%	5%
(continued)
SMILES	VACV Venus inh	VACV mCherry inh
CC(C)(C)NC(=O)CN(C(=O)CNC(=O)c1cccs1)c1ccccc1F	-9%	-4%
COc1ccccc1NC(=O)C1CCCN(S(=O)(=O)c2cccc3nsnc23)C1 (stereo unspecified)	-5%	-14%
CN(Cc1ccccc1)C(=O)c1cccc(NC(=O)Cc2ccc(NC(=O)C3CCN(C(=O)C4CCCC4)CC3)cc2)c1	-24%	-30%
COc1ccc(CSCC(=O)NN=C2CCN(C)CC2)cc1	-18%	-5%
CCOC(=O)[C@]12CCCC=C1N(Cc1ccccc1)C(=O)[C@H](CC(=O)N1CCC(c3ccccc3)CC1)C2	-24%	-5%
NC(N)=NS(=O)(=O)c1ccc(NC(=S)NC(=O)c2ccc(Br)cc2)cc1	-22%	-9%
N#Cc1ccc(C(=O)Nc2cc(S(=O)(=O)Nc3ccc(Cl)cc3)ccc2N2CCCCC2)cc1	-25%	-2%
Cc1ccc(S(=O)(=O)N2[C@@H](c3cccc(Cl)c3)C(C(=O)O)=CC[C@H]2c2cccc(C)c2)cc1	-17%	i
CCN(CC)C(=O)Oc1ccc(Br)c2ccccc12	-1%	-14%
CC(=O)c1sc(NC(=O)C(C)Oc2ccc3c(C)cc(=O)oc3c2)nc1C (stereo unspecified)	-11%	-17%
COc1ccc(CNC(=O)C2CCC(CNS(=O)(=O)c3cccs3)CC2)cc1 (stereo unspecified)	-1%&-9%	-7%&-16%
COc1ccccc1NC(=O)C(C)OC(=O)/C=C/c1ccc2ccccc2n1 (stereo unspecified)	?	-27%
CN1C/C(=C/c2ccccc2[N+](=O)[O-])C(=O)/C(=C\c2ccccc2[N+](=O)[O-])C1	-9%	?
Cc1ccc(NNC(=O)C2CCC2)cc1C	-8%	i
CC(=O)N1c2c(cc(Br)cc2S(=O)(=O)NCc2ccc(C)cc2)CC1C (stereo unspecified)	-5%	6%
COc1ccc(S(=O)(=O)NCCc2csc3nc(-c4ccc(Cl)cc4)nn23)cc1C	-8%[7.34 µM]	-10%[7.34 µM]
CCN(C(=O)COC(=O)c1cccc(S(=O)(=O)N2CCOCC2)c1)C1CCS(=O)(=O)C1 (stereo unspecified)	-9%	-10%
Cc1ccc(-c2c(C)sc(NC(=O)C3C4CCC(O4)C3C(=O)O)c2C(=O)OC(C)C)cc1 (stereo unspecified)	-2%	·
Cc1c(C(=O)NCc2nnc(-c3ccccc3)o2)oc2c(F)cccc12	-13%	i
CCCCCCC=C1CCC(CN2CCCC2)C1=O (stereo unspecified)	?	-24%
Cc1cc(C(C)(C)C)oc1C(=O)N(CC(=O)NC1CCCC1)Cc1ccc(F)cc1	-9%	i
Cc1ccccc1OCCCCn1c(-c2ccc(Cl)cc2)nc2ccccc2c1=O	6%	1%
CC(Nc1nc(-c2ccc(F)cc2)cs1)c1nc2cc(Cl)c(Cl)cc2n1CCOCCO (stereo unspecified)	?	?
c1ccc(-c2nc(CSc3nnnn3-c3ccccc3)cs2)cc1	-5%	i
O=C1CCN(S(=O)(=O)c2ccccc2)N1	7%	-10%

Compound profiles, from the list above. Values in the order: VACV Venus inh, VACV mCherry inh
Cc1ccc(S(=O)(=O)N2[C@@H](c3cccc(Cl)c3)C(C(=O)O)=CC[C@H]2c2cccc(C)c2)cc1 as listed: -17%, i
Cc1ccc(NNC(=O)C2CCC2)cc1C as listed: -8%, i

Continued:
SMILES	VACV Venus inh	VACV mCherry inh
O=C(CCC(=O)N/N=C/c1ccco1)N/N=C/c1ccco1	10%	-12%
COc1cc(-c2noc(-c3ccc(NCc4ccco4)c([N+](=O)[O-])c3)n2)cc(OC)c1OC	-5%	-10%
CCOC(=O)COc1cccc2c(=O)n(CC(N)=O)ccc12	-8%	-14%
Cc1ccc(NC(=O)CSc2nc3ccccc3nc2N2CCOCC2)c(C)c1	-5%	i
Cc1ccc(-c2nc3ccc(C)cn3c2CC(=O)N(C)C)cc1	-16%&-10%	-8%
CC1=CC2=NC(=O)CC(C)(C(=O)N(CC(=O)NC(C)(C)C)Cc3cccs3)N2C=C1 (stereo unspecified)	25%	18%
CN(C)C(=O)CCc1ccc2c3c([nH]c2c1)[C@]1(C)[C@@H](C(=O)N2CCCCC2)C[C@H](CC(=O)NCc2ccco2)C(=O)N1CC3	3%	-13%
NNC(=O)c1ccc(Cn2cccn2)o1	-20%[7.34 µM]	-12%[7.34 µM]
Cc1cccc(-n2c(SCC(=O)c3ccccc3)nnc2-c2ccc(Br)cc2)c1	-23%	-27%
CN1C(C(=O)Nc2cccc(O)c2)=CC(c2cccs2)=NS1(=O)=O	-14%&-15%	?
O=C(COc1ccccc1)Nc1ccc(-c2nnc(-c3ccco3)o2)cc1	9%	·
C[C@]12CCC3[C@@H](CC[C@@H]4C[C@H](O)CC[C@]34C)[C@@H]1CCC2=O (stereo partly specified)	-18%	i
CC(C)C(=O)Nc1nnc2n1CCS2	3%	11%
CC1CCCN(C(=O)c2ccc(N3CC4CC(C3)c3cccc(=O)n3C4)c([N+](=O)[O-])c2)C1 (stereo unspecified)	-7%	-6%
CCOc1ccc2c(c1)c(=O)c(S(=O)(=O)c1ccccc1)cn2CC(=O)Nc1ccccc1OC	-6%	-3%
CCOC(=O)c1cc(-c2ccc3c(c2)OCCO3)n[nH]1	?	-23%
COc1ccc(OC)c(C(=O)c2coc3ccc(OC)cc23)c1	-8%	·
CC[C@H](CC[C@@H](C)[C@H]1CC[C@H]2[C@@H]3CC=C4C[C@@H](O)CC[C@]4(C)[C@H]3CC[C@]12C)C(C)C	0%	i
c1ccc(COc2cccc(-c3cc4nc(NCc5cccs5)ccn4n3)c2)cc1	-13%	-5%
O=C(NCCNc1nccc(C(F)(F)F)n1)c1cccc(C(F)(F)F)c1	-5%	-13%
COc1ccccc1OCCn1cc(/C=C(\C#N)C(=O)NCc2ccco2)c2ccccc21	?	-20%
CN(C)/C(CN1CCOCC1)=C1\N=C(c2ccccc2)OC1=O	-19%	i
Cc1ccc(CNC(=O)c2c[nH]n3c(=O)c(Cc4ccc(Cl)cc4)c(C)nc23)cc1	-10%	-9%
CCCCN(CCCC)Cc1ccc(C(=O)NN)o1	-10%	i
COc1ccc(NC(=O)C(=O)NCC(c2ccco2)N2CCc3ccccc3C2)cc1 (stereo unspecified)	?	?

Pulled one by one from the entries so far, 5 records:
SMILES	VACV Venus inh	VACV mCherry inh
CCOc1ccc2c(c1)c(=O)c(S(=O)(=O)c1ccccc1)cn2CC(=O)Nc1ccccc1OC	-6%	-3%
COc1cc(-c2noc(-c3ccc(NCc4ccco4)c([N+](=O)[O-])c3)n2)cc(OC)c1OC	-5%	-10%
c1ccc(COc2cccc(-c3cc4nc(NCc5cccs5)ccn4n3)c2)cc1	-13%	-5%
O=C(CCC(=O)N/N=C/c1ccco1)N/N=C/c1ccco1	10%	-12%
CCOC(=O)COc1cccc2c(=O)n(CC(N)=O)ccc12	-8%	-14%

Other results follow:
SMILES	VACV Venus inh	VACV mCherry inh
CCOC(=O)c1ccccc1-c1csc(N)n1	-12%	-3%
Cc1ccc(C)c(NC(=O)CN(C)S(=O)(=O)c2cccc3cccnc23)c1	-8%	-15%
COc1ccc(Br)cc1CNC(=O)c1cnc2sc(N3CCCC3)nn2c1=O	-6%	-12%
COc1ccc(C2=NN(C(=O)CCC(=O)O)C(c3ccc(OC)c(OC)c3)C2)cc1 (stereo unspecified)	-8%	-5%
COc1ccc(NC(=S)N2CCN(C(=O)c3ccccc3)CC2)cc1	-5%	-5%
CN(C)Cc1ccccc1-c1cccc2nccn12	9%	7%
COc1ccc(C(=O)N(C)CC(O)c2ccccc2)cc1OC1CCN(C(C)=O)CC1 (stereo unspecified)	3%	i
OCCC1CN(Cc2cnc(N3CCCC3)s2)CCN1Cc1ccccc1 (stereo unspecified)	-7%	-18%
C[C@@H]1NCCc2cc(O)c(O)cc21	-12%	i
Cc1cc(-c2nnc(SCC(=O)Nc3ccccc3F)n2N)n[nH]1	-10%	i
Cn1c(=O)[nH]c(=O)c2c1nc(CN1CCOCC1)n2Cc1ccc(F)cc1	-2%	13%
CN(C(=O)Cn1c(=O)oc2ccccc21)C1CCCCC1	-1%	i
CCc1nnc(NS(=O)(=O)c2ccc(N/C=C\C(=O)c3ccc(C)cc3)cc2)s1	-11%	·
Clc1ccc(-c2nc3n(n2)Cc2ccccc2-3)cc1	?	-26%
COc1ccc(S(=O)(=O)N(CC(N)=O)C2CCCCC2)cc1Cl	-13%	-15%
Cc1ccc(-c2nnc(N(C)C(=O)c3ccncc3)s2)cn1	0%	-16%
Cc1ccc2c(c1)N(CC(=O)NCCCN1CCCCC1C)C(=O)c1cccnc1O2 (stereo unspecified)	-4%&-1%	-6%&-5%
O=C(CCCN1C(=O)/C(=C/c2ccco2)SC1=S)Nc1cccc(C(=O)O)c1	38%[activator]	-17%
O=C(CN1C(=O)S/C(=C/c2cccs2)C1=O)N1CCOCC1	-6%	·
OC(c1ccc(F)cc1)c1nc(-c2ccc(Cl)cc2)cs1 (stereo unspecified)	?	-27%
Cc1cc(NC(=O)CSCC(=O)OC(C)C(=O)N(C)Cc2ccccc2)no1 (stereo unspecified)	-1%	i
COc1ccc(S(=O)(=O)N2CCCC2)cc1C(=O)N1CCOCC1	-4%	i
CN(C(=O)COc1cc(=O)n(C)c2ccccc12)c1ccc(Cl)cc1	-2%	-10%
COc1ccc(C(=O)NCCn2cc(SCC(=O)Nc3ccccc3)c3ccccc32)cc1OC	7%	2%
COc1cc(Cl)c(C)cc1NC(=S)NN	3%	-3%

Compounds from the list above that have a cyano group, in the order listed:
SMILES	VACV Venus inh	VACV mCherry inh
N#Cc1ccc(C(=O)Nc2cc(S(=O)(=O)Nc3ccc(Cl)cc3)ccc2N2CCCCC2)cc1	-25%	-2%
COc1ccccc1OCCn1cc(/C=C(\C#N)C(=O)NCc2ccco2)c2ccccc21	?	-20%

Continued:
SMILES	VACV Venus inh	VACV mCherry inh
FC(F)(F)c1cccc(/C=N/NC(=S)NC2CCCCC2)c1	-13%	-20%
[O-][N+](=C(c1ccccc1)c1ccccc1)c1ccccc1	-3%	?
O=C(C1=C[C@H](C2CC2)C[C@H](OCCCCO)O1)N1CCN(Cc2ccccc2)CC1	-10%	-8%
CCNc1c(NCC)c(=O)c1=O	-8%	-9%
COc1cccc(OCCSc2nc(N)cc(N)n2)c1	?	-29%
COc1ccccc1CN1CC(C(=O)NCc2nc3ccccc3n2C)CCC1=O (stereo unspecified)	-14%	i
CC(C)(C)[C@@H]1COC(=O)[C@@H](Cc2ccc(F)cc2)C/C=C\C[C@H](CC(=O)N(CCO)Cc2ccccc2)C(=O)N1	?	i
CCOc1ccc(OCC)c(NC(=O)c2cnn(-c3ccc(F)cc3)c2-n2cccc2)c1	-26%	-30%
CCc1c(C)sc(NC(=S)N2CCN(CC)CC2)c1C(=O)OC	-15%	-10%
O=C(Nc1nccs1)c1ccc2sc([C@H]3C[C@H](O)[C@@H](CO)O3)nc2c1	5%	14%
Cc1nnc(Nc2ccccn2)c2ccccc12	9%	-8%

Compound activity deposited in PubChem BioAssay by National Center for Advancing Translational Sciences (NCATS).
